ID4 binder: binders of human ID4 protein | P47928 | small molecule microarray, Flag-ID4 binding, fluorescence F/B | calls only | 1.2% of 31,000 active | AID 624137;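 active = spot signal over background at p below 0.07 in all four prints; compounds were printed on slides so no solution concentration is given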;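 note: a binder raises fluorescence above local background on the spot; about 2 pmol printed per array spot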
Target sequence (P47928 whole entry, looked up): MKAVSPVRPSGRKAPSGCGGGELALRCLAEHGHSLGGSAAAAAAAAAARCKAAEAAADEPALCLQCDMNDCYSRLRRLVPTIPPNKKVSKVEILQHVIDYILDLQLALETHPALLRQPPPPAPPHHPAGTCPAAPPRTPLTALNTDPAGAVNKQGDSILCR
Calls only; i = inactive.

SMILES	ID4 binder
CC(C)NC(=O)N(C)C[C@H]1Oc2ccc(N(C)C)cc2C(=O)N([C@@H](C)CO)C[C@H]1C	i
COCC(=O)N(C)C[C@@H]1Oc2cc(-c3cccc(F)c3)ccc2S(=O)(=O)N([C@H](C)CO)C[C@H]1C	i
CCCNC(=O)N(C)C[C@H]1Oc2cc(C#C[C@H](C)O)ccc2S(=O)(=O)N([C@H](C)CO)C[C@@H]1C	i
CC1CCc2c(sc3ncnc(NCCc4nc5ccccc5[nH]4)c23)C1 (stereo not given)	i
COC(OC)C1Nc2ccccc2C(=O)N1c1cccc(C(F)(F)F)c1 (stereo not given)	i
Cc1c(Cl)cccc1NC(=O)CN(C)S(=O)(=O)c1ccc2ccccc2c1	i
Nc1cc(N)nc(SCc2n[nH]c(=S)n2-c2ccccc2)n1	i
COCC(=O)N(C)C[C@@H]1Oc2ncc(-c3ccc(C#N)cc3)cc2C(=O)N([C@@H](C)CO)C[C@@H]1C	i
Cc1c(NC(=O)Cn2nc(C(F)(F)F)c3c2CCCC3)c(=O)n(-c2ccccc2)n1C	i
Cc1cc(C)nc(SC(C)C(=O)Nc2ccc(Cl)c(Cl)c2)n1 (stereo not given)	i
COc1cccc(N(CC(=O)Nc2c(C)n(C)n(-c3ccccc3)c2=O)S(C)(=O)=O)c1	i
COc1ccc(S(=O)(=O)N[C@@H]2C=C[C@H](CC(=O)N3CCc4ccccc4C3)O[C@@H]2CO)cc1	i
COC(=O)c1ccc(NC(=O)CN(C)S(=O)(=O)c2cc(Cl)ccc2Cl)cc1	i
O=C(Nc1ccc2c(c1)[C@@H]1C[C@H](CC(=O)N3CCc4ccccc4C3)O[C@@H](CO)[C@@H]1O2)NC1CCCC1	i
O=C1CC2CS(=O)(=O)CC2N1c1ccc(Oc2ccccc2)cc1 (stereo not given)	i
O=C(CC1(O)C(=O)N(Cc2cccc3ccccc23)c2ccccc21)c1ccccc1[N+](=O)[O-] (stereo not given)	i
COc1ccccc1C#Cc1ccc2c(c1)O[C@H](CN(C)C)[C@H](C)CN([C@H](C)CO)S2(=O)=O	i
Cc1ccc(S(=O)(=O)N(C)C[C@H]2Oc3cc(-c4cccc(F)c4)ccc3S(=O)(=O)N([C@H](C)CO)C[C@H]2C)cc1	i
CC(C)c1ccc(NC(=O)CNS(=O)(=O)c2ccccc2)cc1	i
Nc1cc(N)nc(SCC(=O)N2CCN(c3ccc(Cl)cc3)CC2)n1	i
CCCC#Cc1ccc2c(c1)O[C@@H](CN(C)S(=O)(=O)c1cccc(OC)c1)[C@@H](C)CN([C@H](C)CO)S2(=O)=O	i
CS(=O)(=O)N(CC(=O)Nc1ccc(Cl)c(C(F)(F)F)c1)c1cccc([N+](=O)[O-])c1	i
Cc1cc(Cl)c(S(=O)(=O)N2CCSCC2)cc1OCC(N)=O	i
C[C@H](CO)N1C[C@H](C)[C@H](CN(C)C(=O)c2ccccc2)Oc2ncc(C#Cc3ccccc3)cc2C1=O	i
O=C(Nc1ccccc1)c1ccc(NCc2cccnc2)c([N+](=O)[O-])c1	i

Further records:
SMILES	ID4 binder
C[C@@H]1CN([C@H](C)CO)C(=O)c2cc(C#CCC3CCCC3)cnc2O[C@@H]1CN(C)C(=O)CN(C)C	i
CCCCc1c(C)nc2ccc(OC)cc2c1SCC(=O)O	i
CCCC#Cc1ccc2c(c1)O[C@H](CN(C)CC1CCOCC1)[C@@H](C)CN([C@H](C)CO)S2(=O)=O	i
C[C@@H]1CN([C@@H](C)CO)C(=O)c2cccc(NC(=O)C3CC3)c2O[C@@H]1CN(C)CC1CC1	i
Cc1cc(NC(=O)CN(c2cccc(Cl)c2)S(C)(=O)=O)ccc1Br	i
COC(=O)COc1cccc(NC(=O)c2ccc(Br)cc2)c1	i
COc1ccc(S(=O)(=O)N(C)CC(=O)NC2CCCCC2)cc1Cl	i
C[C@H]1CN([C@@H](C)CO)C(=O)c2cc(C#CC3CCCC3)cnc2O[C@@H]1CN(C)C(=O)C1CCCCC1	i
COC(=O)c1cc(-c2ccccc2)sc1NC(=S)Nc1cccc(NC(C)=O)c1	i
O=C(C[C@H]1CC[C@@H](NC(=O)NC2CCCCC2)[C@H](CO)O1)NCc1ccccc1	i
O=C(NCCN1CCOCC1)c1cc2cc(Br)ccc2oc1=O	i
C[C@H]1CN([C@@H](C)CO)C(=O)c2cc(C#Cc3ccccc3F)cnc2O[C@H]1CN(C)C(=O)C1CCC1	i
C[C@@H]1CN([C@@H](C)CO)C(=O)c2cc(C#CC3(O)CCCC3)cnc2O[C@H]1CN(C)S(=O)(=O)c1cccc(F)c1	i
COC(=O)c1c(NC(=O)COc2cccc(Cl)c2)sc2c1CCC2	i
COc1cc(OC)c(NC(=O)CSc2nnc(-c3ccncc3)n2-c2ccccc2)cc1Cl	i
C[C@H](CO)N1C[C@H](C)[C@H](CN(C)C(=O)c2ccc(F)cc2)Oc2ncc(C3=CCCCC3)cc2C1=O	i
COc1ccc(Cl)c(Cn2c(NCc3ccco3)nc3c2c(=O)n(C)c(=O)n3C)c1	i
CN(C)CC(=O)Nc1ccc2c(c1)[C@H]1C[C@H](CC(=O)N3CCc4ccccc4C3)O[C@H](CO)[C@H]1O2	i
CCCC#Cc1ccc2c(c1)O[C@@H](CN(C)C)[C@H](C)CN([C@H](C)CO)S2(=O)=O	i
COC(=O)c1ccccc1NC(=O)c1ccc(Cl)c(S(=O)(=O)Nc2ccc(C)cc2C)c1	i
OC(COc1ccc2cc(Br)ccc2c1)Cn1cnc2ccccc21 (stereo not given)	i
Cc1cc(I)ccc1NC(=O)CN(c1ccc(Cl)c(Cl)c1)S(C)(=O)=O	i
CCC(=O)N(C)C[C@H]1Oc2cc(C#Cc3cccnc3)ccc2S(=O)(=O)N([C@@H](C)CO)C[C@@H]1C	i
CS(=O)(=O)N(CC(=O)Nc1ccccc1-c1ccccc1)c1cccc(F)c1	i
COc1ccc(C(=O)Nc2ccc(Cl)cc2C(=O)NCCN2CCOCC2)cc1	i

Given in CSV form: part of the list above
molecule,ID4 binder
Nc1cc(N)nc(SCc2n[nH]c(=S)n2-c2ccccc2)n1,i
COCC(=O)N(C)C[C@@H]1Oc2ncc(-c3ccc(C#N)cc3)cc2C(=O)N([C@@H](C)CO)C[C@@H]1C,i

An excerpt from the list above, for reference:
SMILES	ID4 binder
Cc1cc(I)ccc1NC(=O)CN(c1ccc(Cl)c(Cl)c1)S(C)(=O)=O	i
CCC(=O)N(C)C[C@H]1Oc2cc(C#Cc3cccnc3)ccc2S(=O)(=O)N([C@@H](C)CO)C[C@@H]1C	i
CS(=O)(=O)N(CC(=O)Nc1ccccc1-c1ccccc1)c1cccc(F)c1	i
COc1ccc(C(=O)Nc2ccc(Cl)cc2C(=O)NCCN2CCOCC2)cc1	i

Additional results follow:
SMILES	ID4 binder
O=C(C[C@H]1CC[C@@H](NC(=O)c2cccc(F)c2)[C@@H](CO)O1)NCc1ccc(Oc2ccccc2)cc1	i
COc1ccc(S(=O)(=O)Nc2ccc3c(c2)[C@@H]2C[C@H](CC(=O)NCC4CC4)O[C@@H](CO)[C@@H]2O3)cc1	i
CC[C@H](C)/C=C(C)/C=C/C(=O)Cc1cc(O)c(C)c(O)c1C=O	i
O=C(Nc1cccc(Br)c1)C1CN(S(=O)(=O)c2ccccc2)CCN1S(=O)(=O)c1ccccc1 (stereo not given)	i
Cc1cc(C)c(NC(=O)CSc2nc(-c3ccc(F)cc3)cs2)c(C)c1	i
C[C@H](CO)N1C[C@H](C)[C@H](CN(C)Cc2ccccc2C(F)(F)F)OCc2cnnn2CCCC1=O	i
Cc1cccc(NC(=O)CNS(=O)(=O)c2ccc(Br)cc2)c1C	i
Cc1cc(C)nc(NS(=O)(=O)c2ccc(NC(=O)c3ccc(-c4ccccc4)cc3)cc2)n1	i
CCn1ccc(CNC(=O)Nc2ccc(Cl)cc2Cl)n1	i
CNC[C@@H]1Oc2cc(C#CC3CCCC3)ccc2S(=O)(=O)N([C@@H](C)CO)C[C@@H]1C	i
CCOc1ccc(OCC(=O)Nc2ccc(C)cc2[N+](=O)[O-])cc1	i
C/C=C/c1cnc2c(c1)C(=O)N([C@H](C)CO)C[C@@H](C)[C@H](CN(C)Cc1ccccc1)O2	i
C[C@@H](NC(=O)C[C@@H]1CC[C@H](NC(=O)C2CC2)[C@@H](CO)O1)c1ccccc1	i
COc1ccc(Cl)cc1NC(=O)C(C)NS(=O)(=O)c1ccc(C)cc1 (stereo not given)	i
Cc1c(CCC(=O)O)c(=O)oc2cc(OCc3cccc(F)c3)ccc12	i
Cc1cc(C)c(NC(=O)CN(C2CCCCC2)S(=O)(=O)c2ccc(Br)cc2)c(C)c1	i
Cc1ccc(C)c(OCC(=O)Nc2cccc(Oc3ccc4c(c3)C(=O)NC4=O)c2)c1	i
Cc1nc(-c2ccccc2)sc1C(=O)C1C(=O)C(=O)N(CCCN2CCOCC2)C1c1ccco1 (stereo not given)	i
Cc1cccc(NCC(O)Cn2cnc3c2c(=O)n(C)c(=O)n3C)c1 (stereo not given)	i
CCOC(=O)c1cc(C)sc1NC(=O)CC1Sc2ccccc2NC1=O (stereo not given)	i
CN(C)c1ccc2c(c1)[C@@H]1C[C@H](CC(=O)NCc3cccc(F)c3)O[C@H](CO)[C@@H]1O2	i
Cc1cccc(CN(C)C[C@@H]2OCc3cnnn3CCCC(=O)N([C@H](C)CO)C[C@H]2C)c1	i
CC(C)CC#Cc1cnc2c(c1)C(=O)N([C@H](C)CO)C[C@H](C)[C@@H](CN(C)C(=O)c1cccc(F)c1)O2	i
Cc1ccc(N(CC(N)=O)S(=O)(=O)c2ccc(Cl)cc2)cc1	i
O=C(CSc1nc(-c2ccc(Cl)cc2)cc(C(F)(F)F)n1)c1cccc([N+](=O)[O-])c1	i

(continued)
SMILES	ID4 binder
CCC1CCc2[nH]c(=S)c(C#N)c(C(F)(F)F)c2C1 (stereo not given)	i
CN1CCN(C(=O)C[C@@H]2CC[C@@H](NS(=O)(=O)c3cccc(F)c3)[C@H](CO)O2)CC1	i
O=C(C[C@H]1C=C[C@H](NC(=O)Nc2cc(F)ccc2F)[C@H](CO)O1)Nc1ccc(-c2ccccc2)cc1	i
CO[C@@H](CN(C)C(=O)c1ccc2c(c1)OCO2)[C@H](C)CN([C@H](C)CO)S(=O)(=O)c1ccc(C)cc1	i
Cc1cccc(NC(=O)CN(c2ccc(Br)c(C)c2)S(C)(=O)=O)c1	i
Cc1nnc(SCC(=O)Nc2cccc(F)c2)s1	i
CC(C)(C)c1ccc(-c2nnc(SCc3cccc(C(N)=O)c3)n2-c2ccc3c(c2)OCO3)cc1	i
COc1ccc(-n2c(SCC(=O)Nc3ccc(C)c(C)c3)nnc2-c2ccccc2)cc1	i
O=c1c(-c2ccccc2)[n+]([O-])c2ccccc2n1OCc1ccccc1	i
Cc1ccc(-c2cnc3c(c2)C(=O)N([C@@H](C)CO)C[C@@H](C)[C@@H](CN(C)S(C)(=O)=O)O3)cc1	i
C[C@@H]1CN([C@@H](C)CO)C(=O)c2cc(C#CCC3CCCC3)cnc2O[C@@H]1CN(C)Cc1ccccn1	i
COc1ccc([N+](=O)[O-])cc1NC(=O)C(CC(C)C)N1C(=O)c2ccccc2C1=O (stereo not given)	i
COc1ccc(-c2ccc3c(c2)O[C@H](CN(C)Cc2cccnc2)[C@@H](C)CN([C@H](C)CO)S3(=O)=O)cc1	i
C[C@H](CO)N1C[C@H](C)[C@@H](CN(C)C(=O)c2ccc(F)cc2)Oc2ncc(C#CCN(C)C)cc2C1=O	i
C[C@H](CO)N1C[C@H](C)[C@@H](CN(C)S(=O)(=O)c2ccc(F)cc2)Oc2cc(C#Cc3ccncc3)ccc2S1(=O)=O	i
O=C(CSc1nnc2n(-c3ccccc3)c3ccccc3n12)Nc1ccc(Cl)cc1	i
O=C(Nc1cc(Cl)cc(Cl)c1)N1CCC(n2cccc2)CC1	i
O=C(CSCc1nc2ccccc2[nH]1)Nc1cccc(C(F)(F)F)c1	i
CS(=O)(=O)N(CC(=O)Nc1cc(C(F)(F)F)ccc1Cl)c1ccc(I)cc1	i
O=C(NCc1ccco1)c1ccc(NC(=O)c2cccs2)cc1	i
C[C@H]1CN([C@@H](C)CO)C(=O)c2cc(C#Cc3ccccc3F)cnc2O[C@H]1CN(C)C(=O)C1CC1	i
C[C@H]1CN([C@@H](C)CO)C(=O)c2cccc(NC(=O)C3CC3)c2O[C@@H]1CN(C)C	i
CS(=O)(=O)N(CC(=O)NC1CCCCC1)c1ccc2c3c(cccc13)CC2	i
COCC(=O)N(C)C[C@H]1Oc2cc(C#CC(C)C)ccc2S(=O)(=O)N([C@H](C)CO)C[C@@H]1C	i
C[C@H]1CN([C@@H](C)CO)C(=O)c2cc(-c3ccccc3F)cnc2O[C@@H]1CN(C)C(=O)C1CCC1	i

(further entries)
SMILES	ID4 binder
CO[C@@H]1CN(C)C(=O)c2cc(NC(=O)C3CCCCC3)ccc2OC[C@@H](C)N(C)C[C@H]1C	i
COC(=O)C[C@H]1C=C[C@@H](NS(=O)(=O)c2ccccc2F)[C@H](CO)O1	i
Cc1ccc(S(=O)(=O)N(C)C[C@H]2Oc3cc(Br)ccc3S(=O)(=O)N([C@H](C)CO)C[C@@H]2C)cc1	i
Cc1ccc(-c2noc(CCC(=O)Nc3ccccc3[N+](=O)[O-])n2)cc1	i
CCn1c2ccccc2c2cc(NC(=O)Cc3ccccc3[N+](=O)[O-])ccc21	i
CSc1ncc(Cl)c(C(=O)Nc2nnc(SCc3ccccc3)s2)n1	i
C/C=C/c1ccc2c(c1)O[C@H](CN(C)C(=O)Cc1cccnc1)[C@@H](C)CN([C@H](C)CO)S2(=O)=O	i

In the list so far, these contain a CF3 group:
SMILES	ID4 binder
COC(OC)C1Nc2ccccc2C(=O)N1c1cccc(C(F)(F)F)c1 (stereo not given)	i
Cc1c(NC(=O)Cn2nc(C(F)(F)F)c3c2CCCC3)c(=O)n(-c2ccccc2)n1C	i
CS(=O)(=O)N(CC(=O)Nc1ccc(Cl)c(C(F)(F)F)c1)c1cccc([N+](=O)[O-])c1	i
C[C@H](CO)N1C[C@H](C)[C@H](CN(C)Cc2ccccc2C(F)(F)F)OCc2cnnn2CCCC1=O	i
O=C(CSc1nc(-c2ccc(Cl)cc2)cc(C(F)(F)F)n1)c1cccc([N+](=O)[O-])c1	i
CCC1CCc2[nH]c(=S)c(C#N)c(C(F)(F)F)c2C1 (stereo not given)	i
O=C(CSCc1nc2ccccc2[nH]1)Nc1cccc(C(F)(F)F)c1	i
CS(=O)(=O)N(CC(=O)Nc1cc(C(F)(F)F)ccc1Cl)c1ccc(I)cc1	i

Only part of the results is shown; the hit share may differ from the screen's.
